Screening data: PubChem, several laboratories
INS promoter inh: inhibitors of insulin promoter-driven GFP, primary screen, imaging, TRM-6 cells (human fetal islet line), eGFP reporter, cell count; reporter expression induced with tamoxifen; hit rate 0.9% among 130,000; inhibition, % at 2 µM;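 active means inhibition above the mean plus 3 SD, with well images judged a real hit on visual review, cut at about 60% in these data, passing the limit was not always enough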
PKD1 kinase inh: inhibitors of human PKD1 kinase, biochemical, fluorescence polarization. inhibition, %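 (about 10 µM by stock and volumes)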. PKD1 kinase fluorescence polarization assay. hit rate 0.056% among 200,000;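 active means inhibition of 50% or more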;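 further: controls were vehicle for no effect and a reference inhibitor for full effect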
GALR2 ag: GALR2 receptor agonists, primary screen, cell-based; Galanin receptor type 2 (Homo sapiens), O43603; activation, %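 (tested at 5 µM)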; AID 803, 2007; GALR2-expressing cells, agonist activation read-out; hit rate 0.48% among 140,000;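 active means above mean plus 3 SD of all compounds, about 5% in these data, not always enough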;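 further: 0% = vehicle buffer wells and 100% = reference agonist at full effect; tested in CHO reporter cells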
Target sequence (O43603 whole entry, looked up): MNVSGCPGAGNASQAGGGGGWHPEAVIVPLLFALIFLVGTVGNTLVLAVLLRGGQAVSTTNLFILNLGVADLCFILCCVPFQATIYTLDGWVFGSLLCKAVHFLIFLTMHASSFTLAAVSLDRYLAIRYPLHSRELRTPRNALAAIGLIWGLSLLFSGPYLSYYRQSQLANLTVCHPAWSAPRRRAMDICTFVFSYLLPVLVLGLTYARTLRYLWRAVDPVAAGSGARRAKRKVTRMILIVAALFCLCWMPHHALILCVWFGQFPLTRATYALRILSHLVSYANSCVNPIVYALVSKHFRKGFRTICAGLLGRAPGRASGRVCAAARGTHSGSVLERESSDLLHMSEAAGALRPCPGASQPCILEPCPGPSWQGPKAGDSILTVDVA
RGS16-Gao HTS: modulators of RGS16 binding to Galphao, primary screen, biochemical, human proteins, multiplexed bead flow cytometry; Regulator of G-protein signaling 16 (Homo sapiens) + Guanine nucleotide-binding protein …; hit rate 0.38% among 220,000; binding response (% of control), % at 10 µM; bead-based flow cytometry RGS16-Galphao binding, fluorescence; actives lie on both sides; AID 1441, 2008;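 active means below 25% or above 175%, edge rows of some plates excepted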;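 further: Galphao activated by GDP with aluminum fluoride before binding; 100% = wells without compound and 0% = beads without RGS; some results beyond the cut were filed as inactive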
Target sequence (O15492 whole entry, looked up): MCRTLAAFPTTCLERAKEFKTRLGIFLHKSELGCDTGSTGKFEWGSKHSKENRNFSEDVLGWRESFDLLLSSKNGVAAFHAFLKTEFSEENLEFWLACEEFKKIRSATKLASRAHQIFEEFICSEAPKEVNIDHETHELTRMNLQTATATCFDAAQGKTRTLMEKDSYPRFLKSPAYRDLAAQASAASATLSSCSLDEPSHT
Target sequence (P09471 whole entry, looked up): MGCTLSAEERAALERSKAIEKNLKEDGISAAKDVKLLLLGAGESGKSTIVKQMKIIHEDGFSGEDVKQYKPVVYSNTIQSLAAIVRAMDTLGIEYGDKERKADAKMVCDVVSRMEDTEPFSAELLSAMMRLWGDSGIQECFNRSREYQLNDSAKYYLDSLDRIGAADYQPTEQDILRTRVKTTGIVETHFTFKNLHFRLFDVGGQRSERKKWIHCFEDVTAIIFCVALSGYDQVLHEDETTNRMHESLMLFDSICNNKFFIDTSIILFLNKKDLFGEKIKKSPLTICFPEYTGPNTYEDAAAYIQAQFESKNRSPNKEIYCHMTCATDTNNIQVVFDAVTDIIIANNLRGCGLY
HSV replic up: enhancers of HSV replication in host cells, fold increase, host cell viability; HSV replication augmentation in cells; AID 1956, 2009; maximum fold increase; hit rate 0.005% among 220,000;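 active means peak rise of 1.5-fold or more in the series; tested in PC3 cells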;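 further: first round at 10 µM; read as green reporter fluorescence; hits show the peak of a series up to 25 µM; 1 = signal of infected wells without compound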
INS promoter inh cell count: recorded beside INS promoter inh, whose call it bears; normalized cell count, %; measured here: cell count, toxicity; reference of the scale not given here;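 cells exposed to compound for 48 h; stained nuclei by imaging scaled within each plate; lower means fewer cells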
HSV replic up primary fold: recorded beside HSV replic up, whose call it bears; fold increase; compound at 10 µM; measured here: primary screen fold increase 10 uM; tested in PC3 cells;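 GFP signal in the first replicate; 1 = infected wells without compound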
An asterisk follows results filed as active; i = inactive; · = no result given.

molecule	HSV replic up	RGS16-Gao HTS	HSV replic up primary fold	INS promoter inh cell count	GALR2 ag	INS promoter inh	PKD1 kinase inh
CN(C)S(=O)(=O)c1ccc(C(=O)OCC(=O)Nc2sc3c(c2C#N)CCCCC3)cc1	i	106	0.87	116	-0.1	50	-1
CC(=O)c1cccc(NC(=O)c2c(C)nn(-c3ccccc3)c2Cl)c1	i	104	0.94	117	·	0	-1
N#CC1=C(N)Oc2n[nH]c(-c3ccccc3)c2C1c1cccc(OC(=O)N2CCOCC2)c1 (stereo not drawn)	i	104	0.9	68	-2.6	-17	-9
C/C(CC(=O)NC12CC3CC(CC(C3)C1)C2)=N\NC(=O)c1ccc(C)cc1	i	102	1	·	·	·	-1
CCc1nnc(NS(=O)(=O)c2ccc(NC(=O)/C=C/c3ccc(F)cc3)cc2)s1	i	109	1.1	39	·	-275	1
NC(=O)COC(=O)c1ccc(-c2ccc(O)cc2)cc1	i	106	1.1	·	·	·	·
CCOc1ccc(-c2nc3n(c(=O)c2C#N)CCS3)cc1	i	104	0.98	·	·	·	0
COc1ccc(-c2nc3ccccc3n2OCC(=O)O)cc1	i	111	1.1	·	·	·	4
CC(C)(C)c1cnnn1-c1ccc(/C=N/Nc2ccc([N+](=O)[O-])cc2)cc1	i	49	0.9	90	3.2	44	-9
CS(=O)(=O)NCC(c1cccnc1)N1CCN(c2ccc(F)cc2)CC1 (stereo not drawn)	i	38	0.95	57	-2.0	32	-6
COc1ccc2nc(/C(C#N)=C\c3ccc(C(=O)O)cc3)[nH]c2c1	i	103	1.1	·	·	·	-6
CCC(=O)Nc1c(C)ccc2nsnc12	i	107	1.1	105	-0.9	47	-19
COc1ccc(CCNC(=O)C(=O)Nc2ccc3c(c2)OCO3)cc1OC	i	99	0.96	130	·	-29	-7
COCCCNC(=O)CNC(=O)c1cn(-c2ccccc2OC)c(=O)c2ccccc12	i	97	0.86	125	·	0	10
CCN(CC)C(=O)/C(=C/c1ccc2c(c1)OCO2)NC(=O)c1ccc(Br)cc1	i	95	0.92	120	-2.9	-17	-2
CC(=O)CC(c1ccccc1)S(=O)(=O)c1ccc(C)cc1 (stereo not drawn)	i	100	0.93	121	-2.4	-29	-7
COc1ccc(-c2c[n+]3c(n2-c2ccc(C)cc2)CCCCC3)cc1	i	98	0.86	·	·	·	·
COCCNC(=S)N/N=C(\C)c1ccc2cc(OC)ccc2c1	i	116	0.79	47	-0.9	-7	-11
Clc1ccccc1CSc1nnc(-c2ccco2)c(-c2ccco2)n1	i	94	1.1	·	0.7	·	-5
CN(C)CCCNC(=O)c1ccccn1	i	104	0.91	100	-4.0	31	1
CC1Cc2ccccc2N1S(=O)(=O)c1cccc(C(=O)NC2CC2)c1 (stereo not drawn)	i	99	0.95	83	-1.3	30	-18
CCc1ccc2c(CN3CCN(S(=O)(=O)c4cccs4)CC3)cc(=O)oc2c1	i	103	0.94	137	-0.3	-27	0
Cc1ccc(-n2ncc3c(SCC(=O)NNC(=O)c4ccco4)ncnc32)cc1	i	97	0.99	99	·	0	1
CCSC1=C(C#N)C(c2cccc(OC)c2)CC(=O)N1 (stereo not drawn)	i	97	0.85	142	-1.2	-47	-2
COc1ccccc1N1C[C@@H]2C[C@@H](c3ccco3)N3CCC[C@@]23C1=O	i	91	1.1	·	·	·	0
CN(C)C(=O)c1cc(S(=O)(=O)N(C)C)c(Cl)cc1N1CCCC1	·	103	·	95	-1.6	-184	1
C#CCNc1nc(CC)nc2c1nnn2Cc1ccccc1F	i	114	1	204	-0.1	64	2
COc1ccc(NC(=O)C2CCCN(S(=O)(=O)c3cccnc3)C2)cc1OC (stereo not drawn)	i	99	0.96	·	·	·	·
O=C(COC(=O)Cc1ccc(Cl)cc1)Nc1ccccc1-c1ccccc1	i	103	1	·	0.0	·	-14
O=C(CSC1=NCCN1)Nc1ccccc1[N+](=O)[O-]	i	104	0.97	·	·	·	-1
COc1ccc(N2C(=O)C(Cl)=C(N3CCCC(C)C3)C2=O)cc1 (stereo not drawn)	i	101	0.93	106	-2.4	-7	-4
N#C/C(=C\c1ccc(O)c(O)c1)C(=O)N1CCCC1	i	99	0.98	·	·	·	5
O=C(COC(=O)C1CC2C=CC1C2)Nc1ccccc1F (stereo not drawn)	i	101	1.1	122	·	6	1
CCOC(=O)c1c(C)[nH]c(C(=O)CSc2ccc(Cl)cc2)c1C	i	101	1.1	47	-0.5	0	-3
Cc1noc(/C=C/N(C)C)c1S(=O)(=O)N1CCCC(C(=O)N2CCCCC2)C1 (stereo not drawn)	i	74	0.99	·	-2.0	·	-9
CCOc1ccc(CNC(=S)N/N=C/c2ccc(OC)c(OC)c2)cc1	i	99	0.82	138	-2.0	12	-13
COc1ccc(-n2nnnc2SCC(=O)Nc2ccc3c(c2)OCCO3)cc1OC	i	102	1.2	·	0.2	·	-6
O=C(CCn1nnc2ccccc21)Nc1nnc(COc2ccc(F)cc2)s1	i	75	0.99	·	-0.1	·	-3
CCNC(=S)N1C2CCC1CC(NC(=O)Nc1ccc(C(=O)OCC)cc1)C2 (stereo not drawn)	i	103	0.95	152	·	-33	-7
COc1ccc(N(C(=O)c2ccco2)C(C(=O)NC2CCCC2)c2ccc(N(C)C)cc2)cc1 (stereo not drawn)	i	99	1	·	1.2	·	-6
CC(=O)N/C(N)=N/c1nc2cc(C)ccc2o1	i	96	0.9	·	·	·	·
Cc1cc(=O)oc2ccc(OCC(=O)NCc3ccco3)cc12	i	102	0.85	152	-0.2	-36	-1
Cc1cc(C)c[n+](C2=C([O-])c3ccccc3C(=O)/C2=N\S(=O)(=O)c2cccs2)c1	i	102	0.98	121	-0.8	-56	-8
N#CCC(=O)Nc1ccc(C(=O)OCC(=O)N(Cc2ccccc2)C2CCS(=O)(=O)C2)cc1 (stereo not drawn)	i	108	1.2	91	·	-82	2
O=S(=O)(NCc1ccccn1)c1cccc2nsnc12	i	95	0.97	78	-1.9	14	-3
O=C(Cn1cnc2ccccc2c1=O)NCC(=O)N1CCN(Cc2ccc3c(c2)OCO3)CC1	i	98	0.8	·	0.0	·	-5
COc1ccc(CSc2nnnn2C)cc1[N+](=O)[O-]	i	92	0.79	·	-1.8	·	0
COc1cc(NC(=O)C(C)Oc2ccccc2)c(C(=O)O)cc1OC (stereo not drawn)	i	107	1.1	123	-1.9	54	-4
Cc1cc(CN(C)C(=O)c2cc(COc3ccc(F)cc3Cl)on2)n[nH]1	i	101	0.92	·	·	·	-4
O=C(NCCc1cccs1)C1CC(c2ccccc2[N+](=O)[O-])=NO1 (stereo not drawn)	i	103	0.99	·	-3.1	·	-5
Cc1cc(C(=O)Oc2cccnc2)ccc1[N+](=O)[O-]	i	25*	1.1	113*	-2.2	83*	14
CCOc1ccc(NS(=O)(=O)c2ccc(OC)c(NC(=O)c3ccc4c(c3)OCCO4)c2)cc1	i	107	0.89	85	-0.5	0	2
C=CCN1CCN(C(c2ccc(Cl)cc2)c2nnnn2CCc2ccc(OC)c(OC)c2)CC1 (stereo not drawn)	i	92	0.96	149	-0.6	-57	-9
CCOC(=O)C1CCN(C(=O)Nc2ccc3c(c2)nc(C)n3C)CC1	i	93	0.87	90	-2.2	25	-11
Cc1nc(C)c(-c2csc(Nc3cccc(O)c3)n2)s1	i	103	0.91	163	·	-32	2
COc1ccc(CNC(=O)c2cc(SC)ccc2Cl)cc1OC	i	93	1.1	·	·	·	-4
O=C(Nc1cccc(S(=O)(=O)N2CCCCC2)c1)c1cnccn1	i	101	0.98	132	·	36	10
CCn1cc(C(=O)NCc2ccccc2OC)c(=O)c2cc(S(=O)(=O)N(C)C)ccc21	i	100	1.1	·	1.6	·	-2
Nc1c(C(=O)Nc2ccccc2)sc2nc(-c3ccco3)ccc12	i	88	0.9	52*	-1.5	80*	-21
O=C(NC(=S)Nc1ccc(N2CCCCC2)c(Cl)c1)c1ccc2c(c1)OCCO2	·	102	·	·	-2.7	·	-4

(continued)
molecule	HSV replic up	RGS16-Gao HTS	HSV replic up primary fold	INS promoter inh cell count	GALR2 ag	INS promoter inh	PKD1 kinase inh
CCOC(=O)c1ccc(Oc2cc(C)nc(SC)n2)cc1	i	101	0.56	101	-1.6	-67	-8
Cc1[nH]c(=O)[nH]c(=O)c1S(=O)(=O)N1CCC(C(=O)N2CCN(Cc3ccccc3)CC2)CC1	i	96	0.99	126	-0.1	-6	4
C=CCN=c1sc(C(=O)OC)cc(=O)n1CC=C	i	108	0.78	64	0.7	18	10
c1ccc(COc2ccc(OCCN3CCCCC3)cc2)cc1	·	113	·	127	-1.2	-38	-8
CCN(CC)C(=O)c1csc(Nc2ccc(C)cc2)n1	i	102	0.85	·	-0.7	·	-7
Cc1ccc(NC(=O)CCc2c(C)nc3ncnn3c2C)nc1	i	97	0.99	117	-0.1	-6	-12
O=C(CNC(=S)N(Cc1ccccc1Cl)C1CCCC1)NCCCN1CCOCC1	i	101	0.85	113	·	-33	-6
O=C(c1ccc(Cl)c([N+](=O)[O-])c1)N(Cc1ccc(Cl)cc1)C1CCS(=O)(=O)C1 (stereo not drawn)	i	121	0.88	89	-0.2	-14	-4
CCN(CC)S(=O)(=O)c1ccc(OC)c(NC(=O)Cc2cccs2)c1	i	106	0.98	·	·	·	-6
COc1ccccc1C(=O)NNC(=S)NC(=O)c1sc2ccccc2c1Cl	i	101	0.87	·	-0.6	·	3
O=C(Nc1ccccc1N1CCN(C(=O)c2ccccc2)CC1)c1cc2ccccc2o1	i	94	1	139	-1.4	-181	-2
O=C(NCc1ccccc1)c1ccc(=O)oc1	i	98	1	·	·	·	·
O=C1C2C3C=CC(C2C(=O)N1CCCO)C1C2C(=O)N(CCCO)C(=O)C2C31 (stereo not drawn)	i	97	1.2	52	-0.8	3	-1
O=C(Cn1c(=O)oc2cc(S(=O)(=O)N3CCOCC3)ccc21)N1CCc2ccccc2C1	i	86	0.92	·	-2.4	·	0
COc1cccc(/C=N/NC(=O)CN2CC(c3ccccc3)CC2=O)c1O (stereo not drawn)	·	98	·	146	-0.6	8	21

Grouped by structure, the compounds so far with a COOH group.
molecule	HSV replic up	RGS16-Gao HTS	HSV replic up primary fold	INS promoter inh cell count	GALR2 ag	INS promoter inh	PKD1 kinase inh
COc1ccc(-c2nc3ccccc3n2OCC(=O)O)cc1	i	111	1.1	·	·	·	4
COc1ccc2nc(/C(C#N)=C\c3ccc(C(=O)O)cc3)[nH]c2c1	i	103	1.1	·	·	·	-6
COc1cc(NC(=O)C(C)Oc2ccccc2)c(C(=O)O)cc1OC (stereo not drawn)	i	107	1.1	123	-1.9	54	-4

(listing goes on)
molecule	HSV replic up	RGS16-Gao HTS	HSV replic up primary fold	INS promoter inh cell count	GALR2 ag	INS promoter inh	PKD1 kinase inh
Cn1c(=O)n(C)c2cc([N+](=O)[O-])c(N3CCN(C(=O)C(C)(C)C)CC3)cc21	i	103	0.95	125*	·	71*	-5
C=CCN(C(=O)CSc1nc2ccsc2c(=O)n1Cc1ccccn1)c1ccccc1	i	105	0.94	118	·	-43	-8
N#Cc1c2ccc(O)cc2n2ccccc12	i	93	1.3	·	·	·	13
COCc1[nH][nH]c(=O)c1C=Nc1ccc(OC(F)(F)F)cc1	i	100	0.92	·	·	·	-11
CCn1c(Cc2ccccc2)nnc1SCC(=O)Nc1ccccc1N1CCOCC1	i	98	0.91	102	0.0	-188	-4
CC(=O)c1cccc(NS(=O)(=O)c2ccc(N/C=C\C(=O)c3ccc(F)cc3)cc2)c1	i	102	0.74	39	0.7	19	14
O=C1Nc2ccccc2C12OCCCO2	i	98	0.92	·	-1.0	·	-7
CCOC(=O)NC1c2ccccc2Oc2ccccc21	i	115	1	·	·	·	·
Nc1c(Cl)ncnc1N/N=C/c1ccnc2ccccc12	i	101	0.84	241	-1.3	23	5
CCOC(=O)c1c(CN(CC)CC)n(C)c2cc(Br)c(O)cc12	i	105	0.84	·	·	·	·
CCOC(=O)c1cnc2ccc(C)cc2c1Sc1ccccc1	i	93	0.84	52	-1.4	-25	-4
COc1ccc(CCNC(=O)c2nnc(Cc3c(F)cccc3Cl)o2)cc1OC	i	100	0.92	·	-0.5	·	9
